Screening results from PubChem.
B2AR ag = beta2AR agonists driving receptor internalization, primary screen, cell-based, FAP fluorogen, flow cytometry; AID 504454, 2011; Beta-2 adrenergic receptor (Homo sapiens), P07550; response, % (test concentration not listed); hit rate 0.43% among 340,000; Am2.2-beta2AR cells; reference of the scale not given here;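 active = response above a set limit, near 3 SD of response in nonfluorescent compounds, cut at about 42% in these data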;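 note: stock transfer was 100 nL into about 11 µL; a reference agonist was the positive control; negative values mostly stem from fluorescent compounds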
UCH37 inh = inhibitors of human UCH37 deubiquitinase, primary screen, biochemical, Ub-AMC cleavage, fluorescence. Ubiquitin carboxyl-terminal hydrolase isozyme L5 (Homo sapiens), Q9Y5K5. purified proteasome/UCH37. inhibition, % (test concentration not listed). hit rate 0.33% among 330,000. AID 588478, 2011;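 active = mean of two replicates above 20%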;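 note: 0% = compound-free wells with enzyme and 100% = wells lacking proteasome; stock transfer was 100 nL into about 20 µL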
Target sequence (Q9Y5K5 whole entry, looked up): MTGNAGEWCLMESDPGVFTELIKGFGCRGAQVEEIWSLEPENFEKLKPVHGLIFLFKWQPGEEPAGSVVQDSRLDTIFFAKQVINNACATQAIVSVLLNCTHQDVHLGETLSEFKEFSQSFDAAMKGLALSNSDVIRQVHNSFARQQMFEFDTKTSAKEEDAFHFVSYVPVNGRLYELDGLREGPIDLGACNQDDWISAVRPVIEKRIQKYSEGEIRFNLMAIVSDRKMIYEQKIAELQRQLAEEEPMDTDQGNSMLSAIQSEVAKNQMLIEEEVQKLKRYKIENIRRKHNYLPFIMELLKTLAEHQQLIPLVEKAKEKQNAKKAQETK
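Material: Human UCH37 enzyme supplied as purified proteasome complex | Schedule: 30 min preincubation with enzyme, 25 min cleavage at room temperature | Detection: AMC fluorescence 355/460 nm | Measure: % inhibition of Ub-AMC cleavage fluorescence | Controls: Wells without proteasome as full block, compound-free enzyme plus substrate as uninhibited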
Vif TR-FRET = inhibitors of Vif binding to APOBEC3G peptide, primary screen, biochemical, TR-FRET, GST-Vif 1-94, biotin-A3G peptide, dose response retest (AID 1117319); inhibition, %; hits with a dose series show IC50 in µM; Virion infectivity factor (Human immunodeficiency virus type 1 group M subtype B (isolate …; TR-FRET GST-Vif / biotin-A3G peptide binding; higher % means a stronger effect; test concentration not given here; strong numbers were not always called active; hit rate 0.57% among 260,000;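 active = above the screen mean plus three standard deviations and confirmed in dose response; inconclusive = results disagree or hit not tested in dose response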;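 note: Vif residues 1-94 fused to GST binding biotinylated APOBEC3G peptide 110-148; 0% = full assay without inhibitor and 100% = GST in place of GST-Vif; retest series ran down from 100 µM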
LANA-H2A inh = blockers of LANA interaction with H2A/H2B – biochemical, FP readout, HTS, primary screen; Protein LANA1 (Human herpesvirus 8 type P (isolate GK18)), Q9QR71; cell-free LANA-H2A/H2B peptide, fluorescence polarization; inhibition, % (concentration not given with the values); hit rate 0.6% among 320,000; AID 2629, 2010; in the data active = inhibition mostly above about 10%, no sharp cut-off; inactive = mostly below about 6.7%;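 note: stock transfer was 7.5 nL into about 10 µL; 0% = median of vehicle wells and 100% = median of positive control wells; one replicate is shown; the record names a cut of 25% in any replicate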
HNF4A DNA FP = change in binding of human HNF4A to DNA, primary screen, biochemical, fluorescence polarization, FITC-DNA | Hepatocyte nuclear factor 4-alpha (Homo sapiens), P41235 | 1 h | activity change, % at 10 µM | hit rate 0.3% among 360,000 | AID 1224865, 2016; in the data active = activity change above about 30%, passing the limit was not always enough;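 note: controls were the assay level and a saturating level of protein; the project sought stronger binding though the title names inhibitors; some compounds called inactive have numbers as strong as hits; positive values seem to mean higher polarization but the record does not say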
Target sequence (P41235 whole entry, looked up): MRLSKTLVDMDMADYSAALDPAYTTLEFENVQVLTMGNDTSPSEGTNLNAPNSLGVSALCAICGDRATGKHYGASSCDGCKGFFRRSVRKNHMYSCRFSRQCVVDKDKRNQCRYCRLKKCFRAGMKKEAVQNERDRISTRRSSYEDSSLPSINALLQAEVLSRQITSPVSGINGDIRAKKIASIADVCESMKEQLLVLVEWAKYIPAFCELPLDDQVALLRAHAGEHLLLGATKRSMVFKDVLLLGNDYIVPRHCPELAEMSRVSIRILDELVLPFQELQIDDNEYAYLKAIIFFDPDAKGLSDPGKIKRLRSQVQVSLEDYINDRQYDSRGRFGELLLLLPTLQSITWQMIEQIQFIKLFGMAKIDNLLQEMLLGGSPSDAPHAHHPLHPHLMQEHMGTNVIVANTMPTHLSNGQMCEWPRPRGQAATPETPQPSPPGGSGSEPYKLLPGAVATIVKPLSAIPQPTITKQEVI
E coli growth = E. coli growth inhibition, primary screen, OD600; Escherichia coli growth, 23 h; hits give low values; AID 1053175, 2014; OD600 absorbance (concentration not given with the values); hit rate 0.21% among 330,000;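 active = OD600 absorbance below the run mean of sample wells minus 3.6 SD, in any replicate, cut at about 0.56 in these data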;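 note: stock transfer was 300 nL into about 60 µL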
Bfl-1 A1 inh = caspase 3/7 activation in MEF A1-2A-BIM cells, primary screen, A1 inhibitor project, cell-based, luminescence, HTS. caspase activation, % (concentration not given with the values). hit rate 0.066% among 330,000. Caspase-Glo 3/7 luminescence, 3 h; percent of clofoctol response, vehicle zero;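 active = over half of replicate activation scores above 10%, or exactly half above 10 with the replicate mean above 10; inconclusive = replicate mean below 10 yet half the replicates above 10; inactive = over half of replicates below 10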;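 note: wells of about 30 µL received 50 nL stock; many hits fall short of the cut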
Starred values were filed as active, the others as inactive; ? = inconclusive; . = no result given; & = joins results of further samples. Not a hit list; any-hit rate near 2.1%.

SMILES	B2AR ag	UCH37 inh	Vif TR-FRET	LANA-H2A inh	HNF4A DNA FP	E coli growth	Bfl-1 A1 inh
CCCN(C(=O)C(=O)Nc1ccc2nc3n(c(=O)c2c1)CCCCC3)c1ccc(OCC)cc1	0	4.1	.	2.5	3.2	0.69	-0.1
CCOC(=O)COc1ccc(C)cc1-c1ccno1	-1	1.6	11%	2.9	2.3	0.66	0.6
COc1ccccc1-c1csc(NC(=O)c2ccc(N3C(=O)CCC3=O)cc2)n1	9	3.0	-24%	1.8	0.8	0.73	0.8
CC(C)C(NS(=O)(=O)c1ccccc1)C(=O)N1CCCC1 (stereo not drawn)	7	2.8	2%	1.3	-1.0	0.64	-1.7
CCC(C)C(=O)Nc1nc(C)c(-c2csc(Nc3ccc(Cl)cc3)n2)s1 (stereo not drawn)	30	-0.8	-6%	-0.8	6.1	0.71	-1.0
CCOC(=O)CN1C(=O)CN(c2ccc(C)c(C)c2)C1=O	-2	-1.2	-11%	-2.9	-1.5	0.67	0.4
COc1ccc(C2C3=C(CC(C)(C)CC3=O)OC(N)=C2[N+](=O)[O-])cc1 (stereo not drawn)	11	5.5	3%	0.2	0.5	0.69	0.1
COc1ccc(N(CC(=O)NCCC2=CCCCC2)S(=O)(=O)c2ccccc2F)cc1	1	-2.3	6%	-1.5	4.2	0.68	0.8
Cc1c(-n2cc(C(=O)c3cc(Br)ccc3O)cc(C#N)c2=O)c(=O)n(-c2ccccc2)n1C	1	3.8	-3%	-3.1	17	0.66	0.2
O=C(COC(=O)CNC(=O)c1ccccc1Cl)NC1CC1	-4	0.3	.	0.4	3.4	0.68	0.3
CCOCCCNCc1ccc(OC)cc1	0	1.3	12%	0.2	-2.8	0.69	0.0
Cc1cc(NC(=O)COC(=O)c2cc([N+](=O)[O-])ccc2N2CCOCC2)ccc1Br	11	4.4	5%	1.7	-1.7	0.71	0.3
CN(CC(=O)NC(=O)NCc1ccccc1)CC(=O)Nc1ccc(Cl)c(Cl)c1	-3	3.3	3%	-2.2	4.7	0.67	-0.4
CCOC(=O)c1[nH]c2ccccc2c1NC(=O)CCN1CCN(C(=O)OCC)CC1	1	-3.5	4%	0.3	3.0	0.63	0.1
Cc1ccc(S(=O)(=O)NCCC(=O)NC(C)CCc2ccccc2)cc1 (stereo not drawn)	-4	-0.4	-2%	.	-0.8	0.71	0.6
CCN(CC)CCn1c2c(c(SCC(=O)NCc3ccccc3)nc1=O)CCC2	-2	.	.	0.2	-0.1	.	0.3
Cc1c(CCOC(=O)C23CC4CC(CC(C4)C2)C3)sc[n+]1Cc1ccccc1	7	0.2	5%	4.5	0.1	0.64	1.1
COC(=O)c1ccc(C23CC4(C2)[C@H](CN(C)[C@@H]4c2ccccc2)C3c2ccccc2)cc1 (stereo partly drawn)	6	0.8	.	-1.9	1.2	.	-1.2
Cc1ccc(F)cc1NC(=O)c1ccc(NS(=O)(=O)c2ccc(Br)s2)cc1	-6	0.3	22%	-0.4	-1.6	0.65	1.6
COc1ccc(NC(=O)C(c2cc3c(cc2[N+](=O)[O-])OCO3)N2CCN(C=O)CC2)cc1 (stereo not drawn)	-2	-0.7	9%	4.5	2.9	0.65	-0.2

For reference, 2 of the compounds above:
SMILES	B2AR ag	UCH37 inh	Vif TR-FRET	LANA-H2A inh	HNF4A DNA FP	E coli growth	Bfl-1 A1 inh
CCCN(C(=O)C(=O)Nc1ccc2nc3n(c(=O)c2c1)CCCCC3)c1ccc(OCC)cc1	0	4.1	.	2.5	3.2	0.69	-0.1
CCOC(=O)COc1ccc(C)cc1-c1ccno1	-1	1.6	11%	2.9	2.3	0.66	0.6

(cont.)
SMILES	B2AR ag	UCH37 inh	Vif TR-FRET	LANA-H2A inh	HNF4A DNA FP	E coli growth	Bfl-1 A1 inh
CCN(CC)C(=O)CN1CCC(n2c(C)nc3cc(C(F)(F)F)ccc32)CC1	0	0.4	-1%	-5.6	-2.6	0.7	1.4
O=C(CCc1ccccc1)NCCS(=O)(=O)N1CCN(c2ccccc2)CC1	3	-0.2	-7%	4.9	-2.9	0.63	-2.5
CCOc1ccc(N(CC(=O)NC2CCCC2)S(=O)(=O)c2ccccc2)cc1	-2	3.8	.	4.0	1.2	0.72	0.0
NC(=O)C1CCN(c2nc(C3CC3)nc3c2nnn3Cc2ccccc2)CC1	-16	2.4	1%	-3.3	-1.4	0.72	-0.7
COc1cccc(CN(C)CC(=O)NNC(=O)c2ccc(Cl)cc2)c1	7	.	-2%	-0.1	-0.6	.	-0.5
CC(=O)c1sc(N/N=C/c2ccc(C(C)C)cc2)nc1C	3	.	-4%	2.2	9.5	.	-2.1
CC(CNC(=O)c1ccc(OC2CCN(Cc3ccccn3)CC2)cc1)Oc1cccnc1 (stereo not drawn)	-17	-1.2	.	-4.6	-0.4	0.71	1.8
COc1ccccc1OCCC(=O)OCC(=O)Nc1ccc2c(c1)OCCO2	0	2.7	-3%	-3.4	-2.7	0.69	-1.0
O=C(Nc1ccccc1C(F)(F)F)c1c(F)cccc1Cl	-5	-1.4	-5%	-0.2	7.2	0.69	-0.3
Cc1ccc(NC(=S)c2ccc(N(C)C)cc2)cc1	10	-7.3	-34%	0.7	3.5	0.71	-2.4
CN(C)C(CNC(=O)c1cccc(S(=O)(=O)Nc2ccc(SC(F)F)cc2)c1)c1ccccc1 (stereo not drawn)	7	2.8	.	.	2.3	0.69	.
Fc1ccc(C(CCNCc2ccccn2)c2ccc(Cl)cc2)cc1 (stereo not drawn)	24	4.5	1%	-5.8	-0.1	0.65	0.8
CCOC(=O)C1=C(CNCCOc2ccc(OC)cc2)NC(=O)NC1c1ccc2c(c1)OCO2 (stereo not drawn)	-1	-0.2	.	3.1	1.8	0.7	-0.5
Cc1nc(N2CCN(c3ccccn3)CC2)c2c(C)c(C(=O)N3CCN(c4ccc(F)cc4)CC3)sc2n1	14	2.0	.	3.3	2.7	0.7	-0.7
CN(C)S(=O)(=O)c1ccc(C(=O)OCC(=O)c2ccc3c(c2)NC(=O)CO3)cc1	6	6.0	-20%	1.9	0.8	0.73	0.0
CCC1Nc2ncnc(N3CCCCC3)c2N(Cc2ccc(Cl)cc2)C1=O (stereo not drawn)	2	3.6	.	1.4	-0.9&1.3	0.69	-1.5
CCCN1CCc2c(sc(NC(=O)c3ccc(S(=O)(=O)N(C)c4ccccc4)cc3)c2C(=O)NC)C1	5	-6.1	.	1.1	67*	0.69	0.3
CCOC(=O)c1cc(S(=O)(=O)Nc2ccc(OC)cc2OC)cn1C	6	0.8	.	-2.5	-5.6	0.69	-1.2
O=C(CCC(=O)N(CC(=O)NC1CCCC1)c1cccc(F)c1)Nc1nccs1	-8	3.2	.	5.0	0.9	0.71	-0.5
COc1ccc(CN(CC2CCC(C(=O)O)CC2)C(=S)Nc2cc(C)ccc2C)cc1 (stereo not drawn)	-3	5.0	-1%	.	0.6	0.71	.
Cc1ccc2c(c1)N(C(=O)CCC(=O)Nc1ccccc1Cl)CC(C)O2 (stereo not drawn)	-12	5.3	.	5.4	-1.4	0.72	0.3
CCN(CC)C(=O)CCc1nnc(CCc2c[nH]c3ccccc23)o1	-2	5.0	-1%	-1.4	-0.9	0.68	0.1
CCOC(=O)c1c(NC(=O)CN2CCCCC2)sc2c1CCN(C(=O)OCC)C2	-12	-2.3	6%	-0.8	2.9	0.71	-0.5
CC(C)CN1CCN(Cc2cn(C)c3ccccc23)CC1CCO (stereo not drawn)	-5	-0.1	.	-3.8	-0.7	0.66	1.3
O=C(Nc1cccc(NC(=O)C2CCCO2)c1)c1ccco1 (stereo not drawn)	-12	1.8	0%	3.6	6.7	0.6	-0.9
O=C(CSCC(=O)Nc1cccc([N+](=O)[O-])c1)Nc1ccccc1	-5	5.5	?	0.8	-0.8	0.71	0.0
Cc1nc(C(=O)Nc2cc(Cl)ccc2Cl)nn1-c1cc(OC(C)C)c(Cl)cc1Cl	7	2.5	-1%	3.8	1.5	0.72	0.7
COc1cc(Cl)ccc1OCc1cc(C(=O)N(C)CCc2c(C)n[nH]c2C)no1	-3	2.7	.	-0.2	-2.1	0.71	0.1
COc1ccc(N(CCC(=O)O)S(=O)(=O)c2ccc(C)cc2C)cc1	2	-0.8	13%	2.0	1.5	0.67	-0.4
Cc1cccc(NC(=O)CCn2cnnn2)c1	-1	1.8	4%	0.0	-1.4	0.75	-0.9
CC(C)Oc1ccc(/C=N/NC(=O)c2nnn(-c3nonc3N)c2CN(C)C2CCCCC2)cc1	-9	.	0%	-2.1	1.1	.	0.3
Cc1[nH]nc(-c2ccc(OCc3cnn(-c4ccccc4)c3)cc2O)c1Oc1ccc(Cl)cc1	-6	3.4	-4%	-0.6	0.1	0.76	0.0
COc1ccc(S(=O)(=O)Nc2c(C)cc(C)cc2C)c2cccnc12	-9	4.8	.	-2.7	0.7	0.73	0.4
Cc1cc(C)n2nc(SC(C)C(=O)NCc3ccco3)nc2n1 (stereo not drawn)	0	-0.7	1%	12	0.8	0.69	1.2
O=C(CSc1nnc(-c2cccs2)n1Cc1ccco1)Nc1ccc2c(c1)OCO2	-1	-4.5	-4%	-6.9	-2.6	0.77	0.8
CN(C)CCNC(=O)Cn1c(=O)c2cccn2c2ccc(F)cc21	-12	-1.4	-10%	-3.2	-1.4	0.69	0.4
O=C(N[C@@H](Cc1c[nH]c2ccccc12)C(=O)NC1CC1)c1ccccc1Cl	13	0.0	20%	-4.1	0.3	0.7	-0.1
Cc1nc(Cl)cc(CS(=O)(=O)c2ccc(Cl)cc2)n1	-2	2.5	5%	-5.2	-0.3	0.71	1.1
COc1cc(OC)c(NC(=O)/C=C/C(=O)O)cc1Cl	-6	4.1	.	5.8	-2.3	0.67	0.2
O=C(Nc1nc(-c2ccco2)c(-c2ccco2)s1)c1ccco1	-6	-41	32µM*	-13	-7.8	0.68	0.5
O=C(/C=C/c1cccc([N+](=O)[O-])c1)NCCN1C(=O)S/C(=C\c2cccnc2)C1=O	7	8.4	-3%	2.1	-0.2	0.69	0.2
CCN(CC)c1ccc(NC(=O)c2ccc(S(=O)(=O)N3CCOCC3)cc2)cc1	15	1.0	-1%	2.6	1.0	0.69	-0.4
COC(=O)c1c(NC(=O)CSc2nc3nc(C)cc(C)n3n2)sc(C)c1C	-21	2.4	2%	-0.8	7.0	0.69	-0.4
COC(=O)c1ccc(N2C(=O)CC(N3CCN(c4ccccc4)CC3)C2=O)cc1 (stereo not drawn)	4	-4.0	.	-0.3	-8.1	0.77	0.0
CC(C)CSc1nsc(N)n1	-17	0.4	-3%	-3.6	2.9	0.69	-0.6
CCCCC(=O)Nc1ccc(C(=O)NCc2ccncc2)cc1	7	2.1	4%	2.7	4.3	0.67	0.8
CCNC(=S)NNC(=O)c1cccn(Cc2ccc(Cl)cc2)c1=O	0	.	30%	-3.9	1.4	.	0.0
NC(=O)C1CC(=O)N(c2ccc(OCC(=O)Nc3ccc(F)cc3)cc2)C1 (stereo not drawn)	-8	-1.0	4%	.	3.1	0.68	-0.4
Cc1cc(Nc2ccccc2)nc(N)n1	-12	1.7	7%	85*	-1.8	0.66	1.6
CC1CCCC(C)N1CC(O)COc1ccc(Cl)cc1 (stereo not drawn)	8	3.3	19%	-16	4.5	0.75	0.5
